# Calb FLC: affects C. albicans growth with fluconazole. 300,000 tested, 0.57% active. growth inhibition, % (test concentration not listed). C. albicans CaCi-2 (fluconazole-resistant clinical isolate) + fluconazole, Alamar Blue growth, 48 h;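 active = most replicates above 75%; inconclusive = exactly half above 75%; inactive = most below 75%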;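 note: all wells also contain fluconazole at 8 µg/ml as a sub-toxic cotreatment; 0% = median of DMSO wells and 100% = median of geldanamycin control wells; wells of about 8 µL received 7.5 nL stock; the first replicate is given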
# T cruzi inh: blocks replication of Trypanosoma cruzi | T. cruzi beta-gal in NIH3T3, luminescence, 90 h | inhibition, % (test concentration not listed) | 300,000 tested, 1.4% active | AID 1885;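 active = mean inhibition across valid replicates above about 55%, limit read from the data; inconclusive = mean below that limit but half or more replicates reach it; inactive = mean below it, under half of replicates reach it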;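 note: signal also drops with host cell toxicity which is not excluded here; 0% = plate median of DMSO wells and 100% = zero luminescence signal; higher percent means less beta-gal luminescence so fewer parasites; stock transfer was 50 nL into about 50 µL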
# LANA-H2B inh: blocks KSHV LANA binding to histone H2A/H2B; 320,000 tested, 0.6% active; inhibition, % (no concentration beside the values); Q9QR71; cell-free LANA-H2A/H2B peptide, fluorescence polarization; in the data active = inhibition mostly above about 10%, no sharp cut-off; inactive = mostly below about 6.7%;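 note: stock transfer was 7.5 nL into about 10 µL; 0% = median of vehicle wells and 100% = median of positive control wells; one replicate is shown; the record names a cut of 25% in any replicate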
# A1 inh: inhibitors of the anti-apoptotic protein A1, read as caspase activation; caspase activation, % (no concentration beside the values); 330,000 tested, 0.066% active; MEF A1-2A-BIM cells, Caspase-Glo 3/7 luminescence, 3 h; percent of clofoctol response, vehicle zero;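 active = over half of replicate activation scores above 10%, or exactly half above 10 with the replicate mean above 10; inconclusive = replicate mean below 10 yet half the replicates above 10; inactive = over half of replicates below 10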;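 note: wells of about 30 µL received 50 nL stock; many hits fall short of the cut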
# ALR H2O2 inh: inhibitors of human sulfhydryl oxidase ALR. P55789. purified ALR, DTT oxidation, H2O2 HRP-luminol luminescence. inhibition, % (test concentration not listed). 290,000 tested, 3.8% active. AID 485317;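 active = mean and each replicate at 75% or more; inconclusive = only one of the two met; inactive = neither met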;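 note: stock transfer was 7.5 nL into about 7.5 µL; 0% = neutral wells and 100% = wells with inactivated enzyme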
# Target sequence (P55789 whole entry, looked up): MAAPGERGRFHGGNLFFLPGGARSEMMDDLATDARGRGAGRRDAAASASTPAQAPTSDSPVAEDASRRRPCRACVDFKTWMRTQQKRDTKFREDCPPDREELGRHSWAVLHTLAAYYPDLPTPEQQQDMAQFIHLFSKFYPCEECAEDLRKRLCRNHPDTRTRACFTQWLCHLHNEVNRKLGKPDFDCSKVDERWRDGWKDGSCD
# Beta cell apopt: beta cell apoptosis inhibition | protection from apoptosis, % (test concentration not listed) | 300,000 tested, 0.8% active | INS-1E cytokine-induced death, ATP luminescence, 48 h; percent of positive-control rescue, neutral wells zero;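 active = all replicates at 75% or more, or half of them and the mean; inconclusive = half reach 75% but not the mean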;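 note: 0% = cytokine-treated negative control wells and 100% = positive control rescue; higher means more ATP so stronger rescue from cytokine killing; wells of about 40 µL received 100 nL stock; the first replicate is given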
# B2AR ag: agonists of human beta-2 adrenergic receptor inducing internalization | 340,000 tested, 0.43% active | Am2.2-beta2AR cells, FAP receptor internalization, flow cytometry; reference of the scale not given here | P07550 | AID 504454 | response, % (no concentration beside the values);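 active = response above a set limit, near 3 SD of response in nonfluorescent compounds, cut at about 42% in these data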;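 note: stock transfer was 100 nL into about 11 µL; a reference agonist was the positive control; negative values mostly stem from fluorescent compounds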
# Target sequence (P07550 whole entry, looked up): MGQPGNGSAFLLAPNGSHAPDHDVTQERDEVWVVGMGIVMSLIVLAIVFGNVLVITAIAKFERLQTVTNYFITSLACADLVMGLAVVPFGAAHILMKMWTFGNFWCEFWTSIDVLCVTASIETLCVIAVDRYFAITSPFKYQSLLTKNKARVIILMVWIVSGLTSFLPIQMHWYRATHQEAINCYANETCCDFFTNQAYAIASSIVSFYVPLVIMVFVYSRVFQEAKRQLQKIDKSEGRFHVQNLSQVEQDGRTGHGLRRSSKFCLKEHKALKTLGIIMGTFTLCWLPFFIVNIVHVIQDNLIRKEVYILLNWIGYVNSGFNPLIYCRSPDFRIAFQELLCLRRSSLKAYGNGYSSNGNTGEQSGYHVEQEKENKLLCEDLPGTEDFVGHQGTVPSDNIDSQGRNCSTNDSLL
# rRNA inh HTS: selective bacterial rRNA inhibition in E. coli | E. coli WT GFP vs humanized-ribosome RFP mutants, fluorescence, 24 h; hits give low values; DMSO median 0, no signal -100 | GFP signal change (wild-type ribosome), % (no concentration beside the values) | 350,000 tested, 1.6% active;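 active = significant combined selectivity score with lowered wild-type GFP, culture density cut under 30%, mutant RFP and density less affected; inactive = any of these conditions unmet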; note: one replicate is shown; some compounds called inactive have numbers as strong as hits
# rRNA inh HTS OD600: further read-out of rRNA inh HTS, marked with its call; OD600 change, %; measured here: OD600 growth;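 optical density of the mix in the first replicate; 0 = DMSO median and -100 = no signal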
# rRNA inh HTS RFP: further read-out of rRNA inh HTS, marked with its call; RFP signal change, %; measured here: RFP humanized mutant strains;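 first replicate; 0 = DMSO median and -100 = no signal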
# An asterisk follows results filed as active; ? = inconclusive; . = no result given.
nr	Molecule	A1 inh	T cruzi inh	B2AR ag	Beta cell apopt	rRNA inh HTS RFP	rRNA inh HTS OD600	LANA-H2B inh	rRNA inh HTS	ALR H2O2 inh	Calb FLC
1	O=C(NC(=S)Nc1cccc(NC(=S)NC(=O)c2ccco2)n1)c1ccco1	0.3	19	-1	14	28	1	-4.9	-5	7	-9
2	CC(C)CN1CCC(=O)N([C@H](CO)c2ccccc2)CC1	0.3	-13	8	3	12	6	-6.4	4	.	-11
3	COc1ccc(NC(=O)NS(=O)(=O)c2ccc(C)cc2)cn1	0.3	-15	4	-5	3.0	12	68*	59	-65	7
4	COc1ccccc1/C=C/C=N/NC(=O)c1ccc(=O)n(C)c1	-0.1	5	-6	1	.	.	-0.8	.	-2	-10
5	CCOc1cc2nc(-c3ccc(OC)c(OC)c3)nc(NCCCN3CCOCC3)c2cc1OC	1.2	27	26	9	.	.	-0.2	.	36	2
6	N#CCC(=O)Nc1ccc(C(=O)OCC(=O)NC(=O)Cc2ccccc2)cc1	-1.4	12	-5	-8	0.9	9	-7.2	4	99*	7
7	Cc1ccc(-n2ncc3c(NCc4ccccn4)ncnc32)c(C)c1	0.9	-1	-7	3	.	.	-2.2	.	0	-9
8	C1=C(CCNc2ncnc3c2[nH]c2ccccc23)CCCC1	-0.3	.	14	130*	.	.	-5.2	.	32	.
9	COc1ccc(C(=O)COC(=O)c2sc(C)nc2C)cc1F	-1.4	.	6	0	9.4	11	2.4	6	-1	.
10	CN1C(=O)C(C)(C)c2cc(S(=O)(=O)NCCc3ccc(Cl)cc3)ccc21	0.0	-7	1	-3	-4.0	-13	-3.7	-10	0	8
11	O=C(Nc1ccccc1)/C(=C/c1ccc(O)cc1)NC(=O)c1ccco1	0.3	13	0	-1	-1.4	4	2.1	2	68	-3
12	O=C(NCCCNC(=O)c1ccco1)c1ccc(Cl)cc1	-0.5	-4	-5	1	-0.6	11	-3.8	1	3	1
13	CCCCNC(=O)CN1CCN(Cc2ccc3cc(OC)ccc3c2)CC1	-0.7	39	0	2	-1.1	15	-0.3	5	.	4
14	Cc1cc(C)c2nc(C)cc(Nc3ccc(C(=O)N(C)C)cc3)c2c1	0.6	21	.	1	.	.	1.6	.	3	-2
15	Cc1ccc(C(=O)N(CN2CCCC2=O)c2ccc(F)cc2)cc1	0.3	-7	6	-11	.	.	-2.1	.	-10	14
16	Cc1nccn1-c1cc(C(C)(C)C)nc2c(-c3ccccc3)cnn12	-0.2	-11	-9	-3	3.6	7	-9.8	13	7	10
17	CCOC(=O)c1nc2sc3c(c2c(=O)[nH]1)CCCC3	-0.1	-6	20	-6	.	.	1.9	.	-5	6
18	COc1ccc(C)cc1NC(=S)NC12CN3CN(CN(C3)C1)C2	-0.2	-5	.	-3	.	.	1.0	.	.	2
19	CC1CN(S(=O)(=O)c2ccc(C(=O)O)cc2)CC(C)O1 (stereo not drawn)	0.6	-15	-1	-3	4.9	10	-2.8	11	-17	1
20	Cc1nc(C)c(/C(O)=C/c2nc3ccc([N+](=O)[O-])cc3oc2=O)o1	-0.1	-9	.	.	.	.	-2.7	.	69	-3
21	C=CCOc1ccccc1/C=N/O	0.0	-21	6	-3	.	.	4.8	.	-11	2
22	CN(C)/C=C/C(=O)c1cnc(-c2ccccc2Cl)s1	-0.8	9	-4	6	28	-17	-2.3	-19	3	12
23	CC(Oc1cccc(Cl)c1)C(=O)Nc1nc(-c2ccccn2)cs1 (stereo not drawn)	0.2	60*	1	.	-16	-79	2.4	-57	-2	0
24	Cc1ccc(S(=O)(=O)N2CCC(C)CC2)cc1C(=O)NCc1ccccn1	0.5	6	-5	0	2.1	0	-1.3	-2	1	-4
25	Nn1c(SCC(=O)N2CCOCC2)nnc1C1CC1	0.0	-20	-3	-1	-5.7	13	-0.7	7	-1	-17
26	CC(=O)c1ccccc1OC(=O)COc1ccc(Cl)cc1C	0.3	-7	0	.	-1.1	11	-3.6	10	96*	-12
27	COc1ccc(C)cc1S(=O)(=O)N(CC(N)=O)Cc1ccccc1	-0.4	-3	5	.	.	.	0.9	.	1	23
28	Cc1cc(NC(=O)CCC(=O)NNC(=O)c2ccc(C(C)(C)C)cc2)no1	-0.5	-3	4	2	-4.7	1	-0.8	-2	-1	8
29	COc1ccccc1C(=O)NC(=O)COC(=O)c1ccc([N+](=O)[O-])cc1Cl	-0.5	-14	2	-5	-1.2	-2	-0.1	1	3	4
30	COc1cccc(CN2CCNC(=O)C2CC(=O)N(C)CC2CCOCC2)c1OC (stereo not drawn)	0.0	-5	-4	-7	0.1	-2	-2.8	5	-10	0
31	CCOC(=O)N1CCN(C(=O)Cn2nc(C)n3nc(-c4ccccc4)cc3c2=O)CC1	-0.1	12	1	2	3.6	-4	-0.6	3	1	-6
32	Cc1cc(C)c(S(=O)(=O)N2CCN(C(=O)c3cccs3)CC2)c(C)c1	0.4	23	-18	-3	-8.7	-49	4.1	-32	-3	-1
33	COCCN1CN(S(=O)(=O)c2ccc(Cl)cc2)c2nc3ccccc3nc21	-0.7	6	-11	-4	.	.	1.0	.	0	-4
34	COc1ccccc1/C=C/C=N/NC(=O)CCn1nnc2ccccc21	-0.1	18	-3	0	2.8	-6	3.4	-11	-11	-3
35	Cc1ccc(-n2ncc3c(NNC(=O)c4ccco4)ncnc32)cc1C	1.2	-14	7	6	1.2	18	0.4	15	6	22
36	CCC(=O)Oc1ccc2c(C)cc(=O)oc2c1C(=O)c1ccccc1	0.3	2	-8	-1	-9.7	-6	.	-3	1	-4
37	CSc1nnc(CNC(=O)c2ccccc2)n1-c1cccc(C)c1	0.0	-13	-4	1	1.3	5	7.9	6	-4	-3
38	S=C(NCCc1ccccc1)Nc1ccccn1	-0.3	-15	-4	-3	.	.	-1.0	.	16	-4
39	CCCOP(=O)(c1ccc(N(C)C)cc1)C(O)c1ccc(Cl)cc1 (stereo not drawn)	0.2	8	12	-6	2.0	8	-3.0	7	3	36
40	C/C(=N\NC(=O)c1nnn(-c2nonc2N)c1CSc1ccc(Cl)cc1)c1cccnc1	-0.6	4	-8	-8	-4.6	-54	4.2	-35	-7	.
41	Cc1ccc2c(c1)N(C(=O)CCC(=O)NCc1cccc(F)c1)CCO2	-0.2	5	-2	-1	-3.5	-3	3.5	4	-4	1
42	COc1ccccc1N1CCN(C(=O)CSc2nc3ncnc(N)c3[nH]2)CC1	-0.6	-2	13	.	.	.	-1.1	.	18	-3
43	Cc1ccc(S(=O)(=O)N2CCCC(C(=O)NCCc3ccccc3)C2)cc1 (stereo not drawn)	-0.1	-12	-3	1	0.8	-8	-2.0	0	-6	-23
44	CN(c1cccc(NC(=O)CN(c2cccc(F)c2)S(C)(=O)=O)c1)S(C)(=O)=O	-0.1	-5	2	1	-1.8	13	-3.6	25	-3	12
45	COc1ccc(-c2cc(C(=O)OCC(=O)NC3CC3)c3ccccc3n2)cc1	-1.2	.	2	7	-2.4	-22	0.0	-18	.	.
46	CC1CCCN(CCS(=O)(=O)c2ccccc2)C1 (stereo not drawn)	1.1	-10	1	-17	2.4	10	-2.2	8	-2	20
47	COC(=O)C1=C(C)N(Cc2ccccc2)C(=S)N[C@H]1c1ccccc1	-0.6	-56	0	15	-23	-30	3.4	-25	1	-2
48	O=C(Nc1ccc(Cl)cc1C(=O)N1CCOCC1)c1ccco1	0.0	-1	0	1	.	.	-0.5	.	-3	15
49	O=[N+]([O-])c1ccccc1S(=O)(=O)N/C(=N/S(=O)(=O)c1ccccc1)c1ccccc1	0.9	.	-1	-9	-1.1	3	5.4	-4	1	.
50	COc1cccc(OCCNC(=O)c2cc(OC)c(OC)c(OC)c2)c1	0.7	-2	6	5	2.3	3	-0.3	6	-6	3
51	Cc1nc(Cl)c(C(=O)NCc2ccccc2)c(C)c1Cl	0.0	-8	-2	1	-1.3	-6	1.0	0	-26	0
52	Cc1cc(Cl)ccc1NC(=O)CN(C)C1=NS(=O)(=O)c2ccccc21	?	.	1	-3	0.8	10	1.1	5	-1	.
53	CCOCCCNC(=O)c1ccc(CS(=O)(=O)c2cccc(C(F)(F)F)c2)o1	0.9	6	2	-6	-1.7	10	3.2	-6	-9	9
54	COc1ccccc1OCC(=O)Nc1nc(-c2ccc(S(=O)(=O)N3CCOCC3)cc2)cs1	0.3	23	7	5	.	.	-2.1	.	22	0
55	CCOC(=O)c1sc2nc3n(c(=O)c2c1C)CCC3	-0.2	-3	-9	-7	1.7	-1	0.7	6	.	13
56	COc1ccccc1C(=O)NCc1n[nH]c(=S)n1Cc1ccccc1	1.1	-6	-5	-4	-9.6	-9	1.5	-5	.	-14
57	COC(=O)COc1cc(Br)c(/C=C2/SC(=O)N(CC(=O)N3CCCC3)C2=O)cc1OC	0.4	-1	32	-1	.	.	4.3	.	.	6
58	CCOc1ccc(CCNC(=O)COC(=O)/C=C/c2ccc(C)o2)cc1OCC	0.3	15	-3	-8	.	.	5.1	.	-1	-7
59	O=C(O)c1cccc2c1C(=O)N(Cc1ccncc1)C2	-0.2	-8	6	-2	.	.	3.0	.	19	-8
60	COC(=O)Nc1ccc(Cn2cc(C(F)(F)F)ccc2=O)cc1	0.9	0	-1	0	-0.8	15	-4.5	6	-19	23

# (listing goes on)
nr	Molecule	A1 inh	T cruzi inh	B2AR ag	Beta cell apopt	rRNA inh HTS RFP	rRNA inh HTS OD600	LANA-H2B inh	rRNA inh HTS	ALR H2O2 inh	Calb FLC
61	COc1ccc(C(=O)OCC(=O)c2c[nH]c3ccccc23)cc1OC	-0.2	.	9	3	-1.0	-12	0.7	-8	-7	.
62	Cc1cc(C(=O)O)ccc1-n1c(C)cc(/C=C(/C#N)C(=O)Nc2ccccc2)c1C	1.3	2	-3	1	25	-17	-0.6	-20	27	9
63	CCCCN1C(=O)CC(C(=O)OCC)=C1C	.	6	-3	.	2.3	22	.	4	.	8
64	Cc1nc2sccn2c(=O)c1S(=O)(=O)Nc1cccc(Cl)c1C	0.6	-13	-4	0	2.6	-14	-2.7	-8	1	2
65	CC1C(=O)C(C)(C)C(=O)OC1c1ccccc1 (stereo not drawn)	0.4	-1	2	2	0.6	3	-5.0	4	-7	-1
66	COC(=O)c1ccc(C23CC4(C2)[C@H](CN(Cc2cccnc2)[C@@H]4c2ccccc2)C3c2ccc(C(F)(F)F)cc2)cc1 (stereo partly drawn)	-0.2	31	.	2	0.0	16	0.9	16	1	-7
67	COc1ccc(OCc2cc(C(=O)N3C[C@@H](C)O[C@@H](C)C3)no2)c(Cl)c1	-0.6	-5	2	-2	-2.0	1	-3.6	0	-5	8
68	CN(Cc1cnccn1)Cc1nc(Cc2ccccc2F)no1	-0.9	-19	-1	0	-4.4	5	-2.6	4	-8	6
69	Cc1cc(S(=O)(=O)NCCCN2CCOCC2)c(Cl)cc1Cl	0.4	-18	0	-1	-1.1	15	0.3	4	2	11
70	Cc1cc(NC(=O)Nc2ccccc2[N+](=O)[O-])n(C)n1	-0.2	-9	-1	-1	1.2	14	0.3	11	-1	13
71	COc1ccc(CNC(=O)C2CCN(c3nnc(N4CCCC4=O)s3)CC2)cc1	0.2	0	-2	2	6.5	4	0.8	2	-10	7

# Compound activity: PubChem BioAssay, several laboratories

# The list is partial (hit frequency here may not be typical).
